VDR inh: blocks the human vitamin D receptor; 400,000 tested, 0.93% active; VDR-SRC2-3 peptide fluorescence polarization, 2 h; Potency, µM, for the others: max response, negative = inhibition, most hits filed as inhibitors; AID 504847; active means well fitted inhibition curve with a large enough effect; inconclusive means small, poorly fitted or top-dose-only effect, or another doubt; inactive means no such curve, though single readings can be large or run the other way; further: series mostly up to about 120 µM
Target sequence (P11473 whole entry, looked up): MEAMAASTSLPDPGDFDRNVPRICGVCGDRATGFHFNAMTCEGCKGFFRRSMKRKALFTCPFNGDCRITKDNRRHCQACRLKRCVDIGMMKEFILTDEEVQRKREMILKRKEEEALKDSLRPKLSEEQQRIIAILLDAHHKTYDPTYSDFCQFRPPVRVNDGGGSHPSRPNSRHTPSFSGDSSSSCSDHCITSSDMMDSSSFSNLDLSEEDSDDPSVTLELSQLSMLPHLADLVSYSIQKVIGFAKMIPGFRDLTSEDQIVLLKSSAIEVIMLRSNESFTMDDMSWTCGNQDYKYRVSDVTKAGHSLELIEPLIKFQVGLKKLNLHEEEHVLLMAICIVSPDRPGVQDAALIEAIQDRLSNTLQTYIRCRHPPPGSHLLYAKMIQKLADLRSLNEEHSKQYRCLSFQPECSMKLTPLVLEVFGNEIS
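Reagent solutions, kept cold and dark, are dispensed first; compounds are then pinned in at 23 nl, plates briefly spun, and incubated 2 h at ambient temperature. Inhibition of VDR–SRC2-3 peptide binding is read by fluorescence polarization.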
An asterisk follows results filed as active; ? = inconclusive; & = joins results of further samples. On the % scale 0 is the no-effect control and ±100 the full control effect; potency means the concentration at half of the fitted maximal effect. This is a subset, so the mix of outcomes need not match the whole.

no.	VDR inh	molecule
1	19%	Cn1c2ccccc2c2cc(/C=N/NC(=O)c3ccc(N)cc3)ccc21
2	-9%	CC(=O)COc1ccc2c3c(c(=O)oc2c1)CCCC3
3	-1%	CC(NC(=O)CSc1nc2ccc(N)cc2s1)c1ccccc1 (stereo not given)
4	0%	Cc1ccccc1NC(=O)c1ccc(F)c(S(=O)(=O)N2CCN(c3ccccn3)CC2)c1
5	14%	C/C(O)=C(/C=NCC(=O)O)C(=O)Nc1nccs1
6	-5%	Cc1ccc(NC(=O)CN2C(=O)c3ccccc3Sc3ncccc32)c(C)c1
7	1%	O=C(NC(C(=O)O)c1ccccc1)c1ccccc1 (stereo not given)
8	14%	CS(=O)(=O)N1CCN(c2c(Cl)cccc2[N+](=O)[O-])CC1
9	?	CC(C)COC(=O)Nc1nnc(Cc2ccccc2)s1
10	-2%	CC1(c2ccccc2Cl)NC(=O)N(CC(=O)N2CCc3ccccc32)C1=O (stereo not given)
11	-9%	COc1cccc(C(=O)Nc2cc(C)c3c(=O)oc4ccccc4c3n2)c1
12	-12%	Cc1cccc(C(=O)N2CCCC(Nc3ccc(F)c(F)c3)C2)n1 (stereo not given)
13	-4%	CCOc1ccccc1N1CCN(C(=O)CN2C(=O)NC3(CCCC3)C2=O)CC1
14	7%	O=C(CSc1nc(-c2ccccc2)nc2ccccc12)Nc1cccc(C(=O)O)c1
15	0%	COC(=O)CN1C(=O)C(C)(C)c2cc(S(=O)(=O)Nc3ccc(C(C)C)cc3)ccc21
16	8%	Cn1c(-c2ccc(F)cc2)cnc1NCc1ccc(C#N)cc1
17	25%	CC(NO)C(C)(C)NO (stereo not given)
18	2%	COc1ccccc1NC(=S)N(Cc1cccnc1)Cc1ccccc1Cl
19	3%	C=CCn1c(SCC(=O)NC2(C)CCS(=O)(=O)C2)nc2ccccc21 (stereo not given)
20	-8%	CCN(C(=O)C(=O)c1c[nH]c2ccccc12)c1ccccc1
21	6%	O=C(/C(=C/c1ccccc1)c1ccccc1)N1CCCCC1
22	-15%	COc1ccccc1NS(=O)(=O)c1ccc(OC)c(OC)c1
23	-8%	Cc1cc(Nc2ccc(F)cc2C)n2nc(C)nc2n1
24	-13%	CCCn1c(SCC(=O)Nc2ccc(C)c(S(=O)(=O)N3CCOCC3)c2)n[nH]c1=O
25	-2%	CCOc1ccc2nc(NC(=O)CN3CCC(n4nnc5cc(C(F)(F)F)ccc54)CC3)sc2c1

As a working copy, some entries already given.
no.	VDR inh	molecule
1	19%	Cn1c2ccccc2c2cc(/C=N/NC(=O)c3ccc(N)cc3)ccc21
2	-9%	CC(=O)COc1ccc2c3c(c(=O)oc2c1)CCCC3

More structures follow.
no.	VDR inh	molecule
26	-8%	Cc1ccc(C)c(NC(=O)Cn2nc([N+](=O)[O-])c(Br)c2C)c1
27	1%	COc1cccc(C2=NOC(C(=O)N3CCOCC3)C2)c1 (stereo not given)
28	10%	Cc1cccc(C)c1NC(=O)C1=C(O)c2sccc2N(C)S1(=O)=O
29	-2%	COc1ccc(OC)c(N2C(=O)[C@@H]3C(c4ccccc4Cl)=NO[C@@H]3C2=O)c1
30	5%	O=C(CN1CCN(CC(=O)Nc2ccccc2Cl)CC1)NCC1(N2CCCCC2)CCCCC1
31	-5%	Cc1cc(C)c(S(=O)(=O)N2CCOC2CNC(=O)C(=O)NCc2ccco2)c(C)c1 (stereo not given)
32	9%	N#CC1(c2ccccc2)CCC(=NO)CC1 (stereo not given)
33	-6%	CC(C)[C@H](NS(=O)(=O)c1ccccc1)C(=O)OCC(=O)NC1CCCCC1
34	-6%	CC(Sc1nnc(-c2cccnc2)n1N)C(=O)Nc1ccc2c(c1)OCCO2 (stereo not given)
35	5%	Cc1ccc(-n2c3c(cc(C(=O)Nc4cccc(Cl)c4)c2=O)C(=O)CC(C)(C)C3)cc1
36	3%	COc1cc2c(cc1/C=C1/NC(=O)N(CC(=O)Nc3ccccc3)C1=O)OCO2
37	-6%	O=C(NCCc1ccccc1)C1CCC(=O)N1C1CCCC1 (stereo not given)
38	-11%	CCOC(=O)c1c(C)[nH]c(C(=O)CN2C(=O)NC(CC)(c3ccccc3)C2=O)c1C (stereo not given)
39	2%	CC(=O)NCN1CCN(CNC(C)=O)CC1
40	-3%	CCOC(=O)[C@@H]1[C@H]2COc3cc(OC)ccc3[C@H]2N2C(=O)N(c3cccc(Cl)c3)C(=O)[C@@]12C
41	14%	CCc1cccc(C)c1NC(=O)c1cn2c3c(ccc(Cl)c3c1=O)OC(C)C2 (stereo not given)
42	3%	CCOc1ccc(C(C(=O)NCC2CCCO2)N(Cc2cccs2)C(=O)c2snc(C(N)=O)c2N)cc1 (stereo not given)
43	-6%	CC(=O)c1ccc(NC(=O)CCOc2ccccc2)cc1
44	-2%	CN(C1CCCC1)C1CCN(C(=O)CNC(=O)/C=C/c2ccccc2)CC1
45	-11%	Cc1oc2c(c(=O)c1C)C(=O)CC(c1ccccc1)C2 (stereo not given)
46	-2%	Cc1c(NC(=O)c2cccc(S(=O)(=O)N3CCOCC3)c2)c(=O)n(-c2ccccc2)n1C
47	6%&8%	Cc1cccc(C2=NN(c3ccc(Br)cc3)[C@@H](C(=O)N3CCOC3=O)[C@@H]2c2ccccc2)c1
48	6%	Cc1nc(C)c(C(=O)Nc2cccc(C)c2C)s1
49	-5%	O=S(=O)(c1ccccc1)c1nc(-c2ccc(F)cc2)oc1NCC1CCCO1 (stereo not given)
50	-19%	COc1ccc(S(=O)(=O)Oc2cccc(C(=S)N3CCOCC3)c2)cc1

(continued)
no.	VDR inh	molecule
51	-16%	CC(C)(C)c1ccc(OCC(=O)NNC(=O)Nc2ccccc2)cc1
52	-1%	Cn1cc(C(=O)NCc2ccc(Cl)cc2)c(=O)c2cc(S(=O)(=O)N3CCCCCC3)ccc21
53	4%	CC(C)c1ccc(Nc2ncnc3c2c(-c2ccccc2)cn3-c2ccccc2)cc1
54	-11%	CCC(C)(C(=O)NC1CCCCC1)N(C(=O)Cc1cccs1)c1ccccc1 (stereo not given)
55	13%	COc1ccc(S(=O)(=O)n2cccc2)cc1OC
56	-12%	O=C(CSc1ncccn1)Nc1ccc2c(c1)CCC2
57	-7%&3%	CC[C@@H]1C(c2ccc(F)cc2)=NN(c2ccccc2)[C@H]1C(=O)N1CCOC1=O
58	23%	O=C(c1cccc(S(=O)(=O)N2CCOCC2)c1)N1CCCCCC1
59	15%	CCC(N=c1cc(-c2ccc(OC)c(OC)c2)oc2ccc(C)cc12)C(=O)O (stereo not given)
60	-23%	O=C(C1=C[C@@H](C2CC2)C[C@@H](OCc2ccc(CO)cc2)O1)N1CCN(Cc2ccc3c(c2)OCO3)CC1
61	0%	CCOC(=O)c1ccc2c(c1)nc(C1CCN(S(=O)(=O)c3cccs3)CC1)n2CC
62	-13%	O=C(CN1CCN(c2ccccc2O)CC1)NC(=O)NCc1ccccc1
63	-12%	CCOC(=O)/C(C#N)=C/c1ccc(OCC(=O)Nc2ccc(OC)cc2)c(OC)c1
64	0%	Cc1cc(SCC(=O)N/N=C/c2ccc(O)c(O)c2)c(C)cc1Br
65	?	CCOC(=O)c1c(NC(=O)COc2cccc(C)c2C)sc2c1CCCCC2
66	-19%	Cn1nnnc1SCC(=O)N1CCN(c2ccc(Cl)cc2)CC1
67	-8%	OC(c1ccccc1)C(Nc1ccccn1)c1ccccc1 (stereo not given)
68	24%	CCOC(=O)c1ccc(NS(C)(=O)=O)cc1
69	28%	Cc1ccc(N2CC(C(=O)N3CCC(C(=O)NC(C)(C)C)CC3)CC2=O)cc1 (stereo not given)
70	-12%	CC(C)CN(C(=O)COC(=O)c1cnc(Cl)c(Cl)c1)c1c(N)n(Cc2ccccc2)c(=O)[nH]c1=O
71	11%	CC(=O)c1sc(C(C)(C)C)cc1NC(=O)c1ccccc1C(=O)O
72	-6%	O=C1c2cccc3cccc(c23)C(=O)N1CCN1CCN(CC(O)COc2ccc3ccccc3c2)CC1 (stereo not given)
73	-10%	O=C(CCCOc1ccccc1)Nc1cc(S(=O)(=O)N2CCOCC2)ccc1N1CCOCC1
74	-9%	NS(=O)(=O)c1ccc(CNC(=S)NCc2ccc(Cl)cc2)cc1
75	1%	COc1cccc(NC(=O)CNC(C)CCC(C)C)c1 (stereo not given)

Next part
no.	VDR inh	molecule
76	-12%	O=C(C[C@H]1C[C@H](C(=O)N2CCOCC2)[C@@]2(CCC3CCCC3)c3[nH]c4cc(-c5ccco5)ccc4c3CCN2C1=O)NCCCn1ccnc1
77	1%	CC(C)c1cc(=O)n2[nH]c(SCc3ccc(Cl)cc3)nc2n1
78	8%	Cc1ccc(O)c(C(=O)c2cnc3c(c2)COc2ccc(C)cc2-3)c1
79	5%	CCN(C(=O)COC(=O)c1cccnc1SC)C1CCCCC1
80	-12%	COC(=O)c1ccccc1NC(=O)c1ccc(-c2ccccc2F)o1
81	6%	CCN(CC)c1cc2c(cc1F)c(=O)c(S(=O)(=O)c1ccccc1)cn2Cc1ccccc1
82	-12%	Cc1ccc(-n2c(Cn3c(C)nc4ccccc43)n[nH]c2=S)cc1
83	4%	O=C(COc1ccccc1)NNc1c2ccccc2nc2ccccc12
84	8%	CNC(=O)c1nn(-c2ccccc2)ccc1=O
85	10%	CN(C(=O)COc1ccc(-c2nnco2)cc1)C1CCS(=O)(=O)C1 (stereo not given)
86	-18%	Cc1cc(C)cc(OCC(=O)N(Cc2cccs2)C2CCS(=O)(=O)C2)c1 (stereo not given)
87	8%	O/N=C/c1ccc(-c2cc(Cl)ccc2Cl)o1
88	-24%	CCOC(=O)c1[nH]cnc1C(=O)NC1CCN(C(=O)OC(C)(C)C)CC1
89	-8%	COC(=O)C(Cc1ccc(O)cc1)N1Cc2ccccc2C1=O (stereo not given)
90	8%	CCN(C(=O)COC(=O)c1cccc2ccccc12)c1c(N)n(Cc2ccccc2)c(=O)[nH]c1=O
91	7%	c1ccc(Cn2ncc3c(N4CCN(C(c5ccccc5)c5ccccc5)CC4)ncnc32)cc1
92	8%	Cc1cccc(C(=O)OCC(=O)Nc2nccs2)c1
93	-3%	COc1cccc(C(NC(=O)c2ccccc2F)NC(=O)c2ccccc2F)c1
94	5%	COCCCNC(=O)CCc1ccccc1
95	-2%	O=C(N(c1ccccn1)c1ccccn1)C12CC3CC(CC(Cl)(C3)C1)C2
96	-8%	CCc1ccc(C(=O)C(C)OC(=O)c2nn(C)c(=O)c3ccccc23)cc1 (stereo not given)
97	-10%	Cc1nn(C)cc1C(=O)Nc1c(C)nn(Cc2ccccc2Cl)c1C
98	13%	COc1ccc(-c2nc3sc(CCNC(=O)c4cc(OC)c(OC)c(OC)c4)c(C)n3n2)cc1
99	6%	O=C(COc1ccc(Cl)cc1)NCCc1ccccn1
100	-8%	O=C(CN1C(=O)NC2(CCc3ccccc32)C1=O)NCc1ccccc1Cl (stereo not given)

Next section:
no.	VDR inh	molecule
101	3%	O=C(CNc1cccc2ccccc12)N/N=C/c1ccc([N+](=O)[O-])cc1
102	-9%	COc1cccc(NC(=S)NCc2ccncc2)c1
103	1%	COc1ccc(N(C(=O)c2cc3ccccc3oc2=O)C2C=CS(=O)(=O)C2)c(OC)c1 (stereo not given)
104	1%	Cc1ccc(/C(N)=N/OC(=O)CCC2CCCCC2)cc1
105	0%	Cc1ncsc1CCOC(=O)c1ccc([N+](=O)[O-])cc1
106	9%	COC(=O)C1=C(C)NC(=O)C1(NC(=O)c1ccc(Cl)cc1)C(F)(F)F (stereo not given)
107	-12%	COc1cc(/C=N/Nc2ncnc3sc4c(c23)CCC4)ccc1O
108	-1%	CCc1ccc2ncc3c(-c4ccc(F)cc4)nn(CC(=O)NC4CCCCC4)c3c2c1
109	8%	CCn1ccnc1CNC(=O)CC1C(=O)NCCN1CC(c1ccccc1)c1ccccc1 (stereo not given)
110	-10%	CC(C)(C)C1CCC2(CC1)C(Nc1cccc(C(F)(F)F)c1)=NC(=S)N2CC#N (stereo not given)
111	7%	COc1ccc(CN2CCC(C(=O)N3CCN(c4ccccc4F)CC3)CC2)cc1OC
112	22%	Cc1ccc(N2CC(NC(=O)c3ccco3)CC2=O)cc1 (stereo not given)
113	-11%	O=C(CN1CCN(C(=O)C2CCCO2)CC1)Nc1ccc(Cl)c(Cl)c1 (stereo not given)
114	6%	COc1ccccc1CNC(=O)Cc1csc2nc(-c3ccc(Cl)cc3)cn12
115	-16%	Cc1ccc(S(=O)(=O)c2c(C(=O)c3ccccc3)cnc3cc4c(cc23)OCCO4)cc1
116	8%	COc1cc2c(cc1OC)CN(C(=O)c1ccc3[nH]c(C)c(C)c3c1)CC2
117	-13%	COc1ccc(Cl)cc1NC(=O)Cn1c(=O)n(CCCC(=O)NCCc2ccc(OC)c(OC)c2)c(=O)c2ccccc21
118	-18%	COc1ccc(/C=C2\CCC(C3CCCC3)C2=O)cc1Cn1nc(C)cc1C (stereo not given)

A draw from above in order of count of non-hydrogen atoms, highest first.
no.	VDR inh	molecule
117	-13%	COc1ccc(Cl)cc1NC(=O)Cn1c(=O)n(CCCC(=O)NCCc2ccc(OC)c(OC)c2)c(=O)c2ccccc21
109	8%	CCn1ccnc1CNC(=O)CC1C(=O)NCCN1CC(c1ccccc1)c1ccccc1 (stereo not given)
111	7%	COc1ccc(CN2CCC(C(=O)N3CCN(c4ccccc4F)CC3)CC2)cc1OC
103	1%	COc1ccc(N(C(=O)c2cc3ccccc3oc2=O)C2C=CS(=O)(=O)C2)c(OC)c1 (stereo not given)
110	-10%	CC(C)(C)C1CCC2(CC1)C(Nc1cccc(C(F)(F)F)c1)=NC(=S)N2CC#N (stereo not given)
114	6%	COc1ccccc1CNC(=O)Cc1csc2nc(-c3ccc(Cl)cc3)cn12
100	-8%	O=C(CN1C(=O)NC2(CCc3ccccc32)C1=O)NCc1ccccc1Cl (stereo not given)
101	3%	O=C(CNc1cccc2ccccc12)N/N=C/c1ccc([N+](=O)[O-])cc1
106	9%	COC(=O)C1=C(C)NC(=O)C1(NC(=O)c1ccc(Cl)cc1)C(F)(F)F (stereo not given)
107	-12%	COc1cc(/C=N/Nc2ncnc3sc4c(c23)CCC4)ccc1O
104	1%	Cc1ccc(/C(N)=N/OC(=O)CCC2CCCCC2)cc1
99	6%	O=C(COc1ccc(Cl)cc1)NCCc1ccccn1
102	-9%	COc1cccc(NC(=S)NCc2ccncc2)c1

Compound activity from PubChem BioAssay.
